From PubChem BioAssay
miR-21 reporter: qHTS Assay for Modulators of miRNAs and/orActivators of miR-21 | HeLa miR-21 FLuc reporter, luciferase, 48 h | Potency, µM (series often up to 38.3 µM), for inactives: top-dose reporter change, positive = more light | 340,000 tested, under 10 active | AID 2288, 2010; active = well fitted rising curve with a large enough effect; inconclusive = small, poorly fitted or top-dose-only effect; inactive = no such curve, though single readings can be large or run the other way;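 also: % of control where 0% means no effect; miR-21 action dims this reporter so a rising signal means less miR-21 action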
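HeLa miR-21-FLuc reporter line, endogenous miR-21; 2000 cells/well in DMEM/10% FBS; compound titration up to ~40uM final, 48 h, 37 degree Celsius; luciferase detection reagent, 15 min lysis, CCD luminescence.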
GLA inh pH 4.5: qHTS Assay for Inhibitors of Human alpha-Galactosidase at pH 4.5. Alpha-galactosidase A (Homo sapiens), P06280. purified enzyme, 4-MU-alpha-Gal fluorescence, pH 4.5. activity change, negative = inhibition, % at 105 µM. 230,000 tested, under 10 active; inconclusive = small, poorly fitted or top-dose-only inhibition, or a rising curve; inactive = flat fitted curve, though single readings scatter; no compound was filed as active;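 also: 0% = full activity with enzyme and -100% = basal without enzyme; dose as in the result columns while the protocol names 77 µM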
Target sequence (P06280 whole entry, looked up): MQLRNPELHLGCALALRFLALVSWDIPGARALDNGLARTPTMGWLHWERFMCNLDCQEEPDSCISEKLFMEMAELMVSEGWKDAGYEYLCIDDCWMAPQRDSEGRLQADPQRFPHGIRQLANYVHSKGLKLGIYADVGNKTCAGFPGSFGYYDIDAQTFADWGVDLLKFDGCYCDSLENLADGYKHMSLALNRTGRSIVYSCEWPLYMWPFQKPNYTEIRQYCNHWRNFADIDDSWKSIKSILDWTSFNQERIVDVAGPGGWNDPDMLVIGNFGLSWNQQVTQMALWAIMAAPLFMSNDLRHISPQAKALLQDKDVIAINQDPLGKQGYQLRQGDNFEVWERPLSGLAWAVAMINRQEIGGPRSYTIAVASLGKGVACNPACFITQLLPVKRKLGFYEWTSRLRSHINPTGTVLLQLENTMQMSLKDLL
Rango-impB inh: qHTS Assay for Inhibitors of Rango (Ran-regulated importin-beta cargo) - Importin beta complex formation; Importin subunit beta-1 (Homo sapiens), Q14974; Rango CFP/YFP FRET sensor + importin beta, 45 min; Potency, µM (series often up to 92.2 µM), for the others: at the top dose inhibition of complex formation; 0.031% of 340,000 active; AID 540263, 2011; active = rising FRET ratio curve, often small or poorly fitted; inconclusive = mostly compound fluorescence or quenching in the first reads; inactive = flat curves in all reads;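 also: potency is read from the fitted curve at half-maximal effect; 0% = DMSO wells and 100% = buffer wells lacking importin beta; nearly all actives have a fitted effect of over 15% in size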
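FRET biosensor (snurportin 1 IBB flanked by EYFP and cerulean), 50 nM, with compound 5 min, then 0.125 microM importin beta in PBS, 1 mM DTT, 0.02% Tween-20, 0.1% BSA. CFP/YFP ratio read after 45 min at room temperature; pre-read flags interference.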
Rango release inh: qHTS Assay for Inhibitors of RanGTP induced Rango (Ran-regulated importin-beta cargo) - Importin beta complex dissociation; AID 540253, 2011; Biochemical FRET Rango-importin beta, RanGTP-induced dissociation; Potency, µM (series often up to 46.1 µM), inactives show at the highest dose activity change, negative = inhibition; 0.071% of 340,000 active; active means falling FRET ratio curve, often poorly fitted, with flat reads before Ran was added; inconclusive means other falling curves, or compound fluorescence or quenching; inactive means flat or rising ratio curve;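 also: potency is read from the fitted curve at half-maximal effect; % of control where 0% means no effect; nearly all actives have a fitted effect of over 45% in size; -100% = wells without RanGTP and RCC1; the record marks most hits as doubtful in a second field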
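Two FRET readings bracket the reaction: one 5 min after compound meets Rango–importin beta, another 45 min after RanGTP-RCC1 (0.6 uM Ran, 0.2 uM RCC1, 2 mM GTP) is added. Only the second defines inhibition.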
Starred values were filed as active, the others as inactive; & = joins results of further samples. Only part of the results is shown. The share of hits here may be higher or lower than overall.

Results for O=C(Cn1nnc2c(cnn2-c2ccccc2)c1=O)N1CCN(c2ccccc2F)CC1 ?
miR-21 reporter: -7%; GLA inh pH 4.5: -1; Rango-impB inh: 0.9%; Rango release inh: 5%

Results for CCCCNC(=O)CC1N=C2c3ccccc3N=C(SCC(=O)Nc3ccc(OC)cc3)N2C1=O (configuration not stated) ?
miR-21 reporter: -6%; GLA inh pH 4.5: 1; Rango-impB inh: 3.6%; Rango release inh: 0%

How did Cc1ccccc1CSc1n[nH]c(NS(=O)(=O)c2ccccc2)n1 do in these assays?
miR-21 reporter: -12%; GLA inh pH 4.5: -17; Rango-impB inh: -0.3%; Rango release inh: -17%

What do the screens show for `O=C(O)CCC(=O)Nc1ccc2c(c1)Cc1cc(NC(=O)CCC(=O)O)ccc1-2`?
miR-21 reporter: -1%; Rango-impB inh: 0.0%; Rango release inh: 0%

What do the screens show for `CC1CCCCN1CC(=O)c1c(N)n(Cc2ccccc2)c(=O)n(C)c1=O` (configuration not stated)?
miR-21 reporter: -2%; GLA inh pH 4.5: 1; Rango-impB inh: -3.6%; Rango release inh: -12%

How did CCOC(=O)c1cc(C(C)=O)c(=O)[nH]c1C do in these assays?
miR-21 reporter: 6%; GLA inh pH 4.5: -1; Rango-impB inh: -2.4%; Rango release inh: 15%

Results for Cc1ccc(N(Cc2cc3ccc(C)cc3[nH]c2=O)C(=O)c2cccs2)cc1 ?
miR-21 reporter: 1%; GLA inh pH 4.5: 4; Rango-impB inh: -0.9%; Rango release inh: -5%

How did Cc1nnsc1NC(=O)OCc1ccccc1Cl do in these assays?
miR-21 reporter: -7%; GLA inh pH 4.5: 8; Rango-impB inh: 0.2%; Rango release inh: -3%

Results for CCN(CC)CCOC(=O)C1(c2ccc([N+](=O)[O-])cc2)CCCC1 ?
GLA inh pH 4.5: -2&-5; Rango-impB inh: -0.5%; Rango release inh: -4%

What do the screens show for `C=C1CC(Cn2cc(Br)c(=O)[nH]c2=O)(c2ccc(-c3ccccc3)cc2)OC1=O` (configuration not stated)?
Rango-impB inh: -0.2%; Rango release inh: 0%

Not a retest: entries from further up.
Results for CCN(CC)CCOC(=O)C1(c2ccc([N+](=O)[O-])cc2)CCCC1 ?
GLA inh pH 4.5: -2&-5; Rango-impB inh: -0.5%; Rango release inh: -4%

What do the screens show for `C=C1CC(Cn2cc(Br)c(=O)[nH]c2=O)(c2ccc(-c3ccccc3)cc2)OC1=O` (configuration not stated)?
Rango-impB inh: -0.2%; Rango release inh: 0%

Other entries:
How did Cc1ccc(-n2c(Cc3cccn3C)nnc2SCC(=O)Nc2ccc3c(c2)OCO3)cc1 do in these assays?
miR-21 reporter: -10%; GLA inh pH 4.5: -4; Rango-impB inh: -5.4%; Rango release inh: 5%

Results for CCOC(=O)c1c(N)nn(C(=O)C(C)C)c1-c1ccccc1 ?
miR-21 reporter: 2%; GLA inh pH 4.5: 3; Rango-impB inh: -2.9%; Rango release inh: 20%

How did COc1ccc(C(=O)NC2CC2)cc1OC1CCN(Cc2cnn(C)c2C)CC1 do in these assays?
miR-21 reporter: -1%; Rango-impB inh: -2.0%; Rango release inh: 0%

What do the screens show for `Cc1ccccc1N(CC(=O)N1CCc2ccccc2C1)S(C)(=O)=O`?
miR-21 reporter: -4%; Rango-impB inh: 0.2%; Rango release inh: -16%

Results for CC(C)C(=O)N1CCN(c2ccc(NC(=O)c3ccc(Br)o3)cc2)CC1 ?
miR-21 reporter: -4%; GLA inh pH 4.5: -7; Rango-impB inh: 6.3%; Rango release inh: -2%

What do the screens show for `CC(=O)Oc1ccc(-c2cccc(C(=O)OCC(=O)N(C)c3ccccc3)c2)cc1`?
miR-21 reporter: 11%; GLA inh pH 4.5: -3; Rango-impB inh: -0.4%; Rango release inh: -5%

How did O=C(c1ccccc1Oc1ccc([N+](=O)[O-])cc1)N1CCOCC1 do in these assays?
miR-21 reporter: -6%; Rango-impB inh: 0.4%; Rango release inh: 18%

Results for Cc1cc(C)c(C#N)c(SCc2ccccc2F)n1 ?
miR-21 reporter: -23%; GLA inh pH 4.5: 1; Rango-impB inh: 3.7%; Rango release inh: 5%

How did COc1ccc2[nH]c3c(=O)n(Cc4ccc(C(=O)N5CCCC5)cc4)c(=S)[nH]c3c2c1 do in these assays?
miR-21 reporter: -7%; GLA inh pH 4.5: -5; Rango-impB inh: -1.0%; Rango release inh: 1%

What do the screens show for `O=c1[nH]c(N/N=C/c2ccccc2Br)nnc1-c1ccccc1`?
miR-21 reporter: -5%; GLA inh pH 4.5: -5; Rango-impB inh: 2.8%; Rango release inh: -14%

What do the screens show for `NS(=O)(=O)c1ccc(CCNC(=O)CCS(=O)(=O)c2ccc(Br)cc2)cc1`?
miR-21 reporter: -1%; Rango-impB inh: -3.1%; Rango release inh: -14%

How did O=C(Oc1ccccc1N1C(=O)C2CC=CCC2C1=O)c1ccc(Br)cc1 (configuration not stated) do in these assays?
miR-21 reporter: -11%; GLA inh pH 4.5: -6; Rango-impB inh: 2.7%; Rango release inh: 11%

How did Cc1ccc(/C=C/S(=O)(=O)NCC(=O)OCC(=O)Nc2c(F)cccc2F)cc1 do in these assays?
Rango-impB inh: inconclusive; Rango release inh: -17%

How did O=C(NCc1nc2ccccc2[nH]1)C1=C[C@H](C2CC2)C[C@H](OCCCCO)O1 do in these assays?
miR-21 reporter: 0%; GLA inh pH 4.5: -4; Rango-impB inh: 1.0%; Rango release inh: 2%

How did COc1ccc(N(CC(=O)Nc2ccc3c(c2)OCCO3)S(=O)(=O)c2cccc(C)c2)cc1 do in these assays?
Rango-impB inh: -1.5%; Rango release inh: -3%

Results for Cc1nc(C(=O)NC2CCOCC2)sc1C1(C)CC(c2cccc([N+](=O)[O-])c2)=NO1 (configuration not stated) ?
miR-21 reporter: 10%; GLA inh pH 4.5: 6; Rango-impB inh: 3.3%; Rango release inh: 11%

How did CCOC(=O)c1ccc(NC(=O)c2nc[nH]c2C(=O)N2CCN(c3ccccc3)CC2)cc1 do in these assays?
miR-21 reporter: 5%; GLA inh pH 4.5: 4; Rango-impB inh: 0.8%; Rango release inh: 15%

Results for CS(=O)Cc1cc(Oc2ccccc2)nc(-c2ccncc2)n1 (configuration not stated) ?
miR-21 reporter: -7%; GLA inh pH 4.5: 7; Rango-impB inh: 3.2%; Rango release inh: -10%

How did CCN(C(=O)COC(=O)c1cnc(C)cn1)c1c(N)n(Cc2ccccc2)c(=O)[nH]c1=O do in these assays?
Rango-impB inh: 1.5%; Rango release inh: -5%

Results for Cc1ccc(OCCC(=O)Nc2ccc(S(=O)(=O)Nc3cc(C)nc(C)n3)cc2)cc1 ?
Rango-impB inh: -4.7%; Rango release inh: 18%

What do the screens show for `O=C(O)CCCC(=O)NNc1nc(-c2ccccc2)c2cc(Cl)ccc2n1`?
miR-21 reporter: 1%; Rango-impB inh: -0.3%; Rango release inh: 4%

What do the screens show for `COCCS(=O)(=O)N(Cc1ccc(Br)cc1)[C@@H](C)C(=O)OC`?
Rango-impB inh: -2.3%; Rango release inh: 10%

Results for CCCCCCCCNC(=O)c1cccnc1SCC(=O)Nc1ccc(OC)cc1OC ?
miR-21 reporter: 2%; GLA inh pH 4.5: 5; Rango-impB inh: -1.2%; Rango release inh: -6%

How did CCCCCc1n[nH]c2c1CCCC2 do in these assays?
miR-21 reporter: -11%; GLA inh pH 4.5: -7; Rango-impB inh: -3.4%; Rango release inh: 8%

Results for Cc1ccc(C(=O)CN(C(=O)c2ccc(Cl)c(Cl)c2)N2C(=O)C3C4C=CC(C4)C3C2=O)cc1 (configuration not stated) ?
miR-21 reporter: 0%; GLA inh pH 4.5: -5; Rango-impB inh: 2.0%; Rango release inh: -7%

What do the screens show for `O=S(=O)(Cc1ccccc1)CS(=O)(=O)Cc1ccccc1`?
Rango-impB inh: 0.0%; Rango release inh: -1%

What do the screens show for `CN1CCN(S(=O)(=O)c2ccc3c(c2)CC(=O)N3C)CC1`?
miR-21 reporter: -1%; Rango-impB inh: inconclusive; Rango release inh: -5%

Results for CCOc1ccc2[nH]c(=O)c(CN(Cc3ccco3)C(=O)c3cccc(F)c3)cc2c1 ?
miR-21 reporter: -1%; GLA inh pH 4.5: -10; Rango-impB inh: -1.0%; Rango release inh: -3%

Results for CC(C)OCCCN1C=C2C(=O)C(C)(OC(=O)CCc3ccccc3)C(=O)C=C2C=C1c1ccc(C#N)cc1 (configuration not stated) ?
miR-21 reporter: 2%; GLA inh pH 4.5: 14&-4; Rango-impB inh: inconclusive; Rango release inh: -9%

Results for CCOC(=O)COc1ccc(Br)cc1/C=C/c1[nH]c(=O)[nH]c(=O)c1[N+](=O)[O-] ?
miR-21 reporter: 9%; GLA inh pH 4.5: -5; Rango-impB inh: 3.1%; Rango release inh: -1%

Gathered by group: the entries above containing a COOH group
What do the screens show for `O=C(O)CCC(=O)Nc1ccc2c(c1)Cc1cc(NC(=O)CCC(=O)O)ccc1-2`?
miR-21 reporter: -1%; Rango-impB inh: 0.0%; Rango release inh: 0%

What do the screens show for `O=C(O)CCCC(=O)NNc1nc(-c2ccccc2)c2cc(Cl)ccc2n1`?
miR-21 reporter: 1%; Rango-impB inh: -0.3%; Rango release inh: 4%

(list continues)
Results for CC(O)[C@H]1CNCCN1CCc1cccc(F)c1 (some centres not stated) ?
Rango-impB inh: 0.6%; Rango release inh: 2%

Results for CC1(C)CC(=O)C2=C(C1)N(CC1CCCO1)C(=O)NC2(C(F)(F)F)C(F)(F)F (configuration not stated) ?
miR-21 reporter: -1%; GLA inh pH 4.5: 1; Rango-impB inh: -3.3%; Rango release inh: 1%

Results for Cc1ccsc1CN(C(=O)c1ccc([N+](=O)[O-])cc1)C1CCS(=O)(=O)C1 (configuration not stated) ?
miR-21 reporter: -3%; Rango-impB inh: 0.2%; Rango release inh: 1%

What do the screens show for `O=C(NCCc1ccccc1F)C1CCCN1S(=O)(=O)c1ccccc1` (configuration not stated)?
miR-21 reporter: -1%; GLA inh pH 4.5: -5; Rango-impB inh: 0.7%; Rango release inh: 0%

How did Cc1sc2nc(C3CC3)nc(N3CCN(C(=O)c4ccccc4F)CC3)c2c1C do in these assays?
miR-21 reporter: 16%; Rango-impB inh: -2.3%; Rango release inh: -7%

What do the screens show for `CCCc1cc(=O)oc2cc(OCC(=O)N3CCN(C(=O)C4COc5ccccc5O4)CC3)ccc12` (configuration not stated)?
miR-21 reporter: 24%; Rango-impB inh: -0.5%; Rango release inh: -3%

What do the screens show for `CC(C)[C@H](NC(=O)c1ccccc1)C(=O)OCC(=O)Nc1sccc1C(N)=O`?
Rango-impB inh: 5.6%; Rango release inh: 13%

How did CCOc1ccccc1NC(=O)Cc1cccs1 do in these assays?
miR-21 reporter: -5%; Rango-impB inh: 5.7%; Rango release inh: -2%

What do the screens show for `Cc1ccccc1C(=O)N1CCN(S(=O)(=O)c2ccccc2)CC1`?
miR-21 reporter: 0%; Rango-impB inh: 4.4%; Rango release inh: -2%

How did CN1C(=O)NC(c2cccc(F)c2)C2=C1CC(C)(C)CC2=O (configuration not stated) do in these assays?
miR-21 reporter: -1%; Rango-impB inh: -0.3%; Rango release inh: -4%

How did CCCNC(=O)c1cccc(COCC(F)(F)C(F)F)c1 do in these assays?
miR-21 reporter: -9%; GLA inh pH 4.5: -1; Rango-impB inh: inconclusive; Rango release inh: 1%

How did CC(C)CC(=O)Nc1nnc(SCC(=O)Nc2nccs2)s1 do in these assays?
miR-21 reporter: 3%; Rango-impB inh: -1.2%; Rango release inh: -1%

How did COc1ccc(S(=O)(=O)N2CCCCCC2)cc1C(=O)NCCOc1ccc(C)cc1 do in these assays?
Rango-impB inh: inconclusive; Rango release inh: 1%
